# Source: PubChem
# STK33 kinase inh: inhibitors of human STK33 kinase; Q9BYT3; purified STK33, MBP phosphorylation, ADP-Glo luminescence; inhibition, % at 10 µM; 320,000 compounds, 0.073% hits; AID 2661;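 active means inhibition at or above 25%, using the most active replicate where run in duplicate; inactive means inhibition below 25%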
# Target sequence (Q9BYT3 whole entry, looked up): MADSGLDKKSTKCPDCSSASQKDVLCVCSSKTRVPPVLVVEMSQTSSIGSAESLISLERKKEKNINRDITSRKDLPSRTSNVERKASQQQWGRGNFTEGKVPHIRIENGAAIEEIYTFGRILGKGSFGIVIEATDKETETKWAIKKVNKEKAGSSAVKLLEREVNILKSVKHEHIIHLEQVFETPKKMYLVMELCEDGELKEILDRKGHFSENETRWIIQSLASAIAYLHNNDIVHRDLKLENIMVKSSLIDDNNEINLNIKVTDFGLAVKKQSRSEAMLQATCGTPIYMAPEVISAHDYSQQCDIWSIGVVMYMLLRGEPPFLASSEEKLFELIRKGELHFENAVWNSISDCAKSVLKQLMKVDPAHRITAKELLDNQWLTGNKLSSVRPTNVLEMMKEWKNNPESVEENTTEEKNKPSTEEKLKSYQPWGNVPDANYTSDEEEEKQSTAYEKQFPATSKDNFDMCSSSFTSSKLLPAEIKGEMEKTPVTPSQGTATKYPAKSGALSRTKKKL
# * = called active by the depositor. Not all compounds are listed, and most or all hits are left out here.
SMILES,STK33 kinase inh
C/C(=N/NC(=O)CNC(=O)C(c1ccccc1)c1ccccc1)c1ccco1,-1.4
N#Cc1ccccc1NC(=O)CSc1cn[nH]n1,-0.5
O=C(c1ccc(Br)o1)N1CCN=C1SCc1cccc(F)c1,-0.8
Cc1ccc(Cn2c(C(C)Nc3nc(-c4ccc(F)cc4)cs3)nc3cc(Cl)c(Cl)cc32)cc1 (configuration not stated),0.6
FC(F)(F)c1cnc(C(c2ccccn2)c2ncn[nH]2)c(Cl)c1 (configuration not stated),-1.5
CCN(C(C)=O)c1nc(CSc2nnc(NC(C)C)s2)cs1,-0.9
Cc1ccc(Nc2nc(-c3ccccc3)c(CC(=O)O)s2)cc1,-0.3
C=CCOC(=O)C1=C(C)N=C2SCCC(=O)N2C1c1cccs1 (configuration not stated),0.3
OCCCNc1nc(-c2ccccc2)c2cc(Br)ccc2n1,2.5
CCCc1cc(=O)c2ccc(OC/C(C)=N/O)cc2o1,0.7
COc1cccc(CNC(=O)CN2C(=O)COc3ccc(S(=O)(=O)N4CCC(C)CC4)cc32)c1,-1.0
COc1ccc(CNC(=O)CN2C(=O)NC(C)(c3cccc4ccccc34)C2=O)cc1OC (configuration not stated),-1.2
CC1(C)CC(=O)C(C2C3=C(CC(C)(C)CC3=O)Oc3ccccc32)=C(O)C1 (configuration not stated),-0.1
COc1ccc2c(C)cc(N3CCOCC3)nc2c1,-0.5
C/C(=N\Nc1nnc(C)c(=O)[nH]1)C(=O)O,0.5
Cc1cc(C)cc(NC(=S)N2CCN(c3ccc(F)cc3)CC2)c1,0.3
COc1cccc(N2C(=O)C3CCCN3C2c2cccs2)c1 (configuration not stated),-0.1
Cc1ccc2c(c1)C1CN(C)CCC1N2C(=O)c1ccc(Cl)c(S(=O)(=O)N2CCOCC2)c1 (configuration not stated),-0.4
COC(=O)c1cc(S(=O)(=O)NCC2CCN(CCc3cccs3)CC2)cn1C,-0.2
Cc1cc(C)n(-c2ccc(F)cc2CN2CCN(Cc3ccccc3)C(CCO)C2)n1 (configuration not stated),-2.5
CCCCCN(C(=O)NC(=O)NC(C)CC)S(C)(=O)=O (configuration not stated),-1.9
COCCn1c(C)cc(C(=O)COC(=O)CCS(=O)(=O)c2ccc(C)cc2)c1C,-0.4
CCn1c(SCC(N)=O)nc2cc(S(=O)(=O)N3CCOCC3)ccc21,-3.4
CC1CCC/C(=N/Nc2ccc([N+](=O)[O-])cc2[N+](=O)[O-])C1 (configuration not stated),-0.8
CCCc1nc2cc(CC(=O)OC)ccc2o1,-0.4
Cc1ccccc1C(=O)Nc1c(-c2cccs2)c(=O)c2ccccc2n1C,-3.3
O=C(NCC1CCCO1)c1cc(-c2ccccc2)on1 (configuration not stated),-0.9
CCc1nn(CC(=O)NCc2ccccc2Cl)c(=O)c2cccn12,-1.3
CCCCOC(=O)C1=C(C)NC(=O)NC1c1cc2c(cc1Br)OCO2 (configuration not stated),-0.6
CCOc1cc(NC(=O)C2CC2)c(OCC)cc1NC(=O)c1cccc(F)c1,-0.5
CC(C)(C)c1csc(NC(=O)C2=COCCO2)n1,0.2
COC(=O)c1cc(-c2ccc(Cl)cc2)n[nH]1,-1.0
COc1ccc(C(=O)NC(C)CCc2ccccc2)c(OC)c1 (configuration not stated),-0.4
O=C(NNC(=O)c1ccccc1Br)c1ccc(Cl)c(Cl)c1,-0.9
Cc1cccnc1NC(=O)CCc1nnc2ccc(N3CCC4(CC3)OCCO4)nn12,-1.5
CC(=O)C1C(c2cccc([N+](=O)[O-])c2)C2C(C)=NN=C2CC1(C)O (configuration not stated),-2.0
Cc1ccc(NC(=O)C(C)N2C(=O)C3C4CC(C(Br)C4Br)C3C2=O)cc1 (configuration not stated),10.1
Cc1nc(-c2ccc(S(=O)(=O)N3CCN(C4c5ccccc5-c5ccccc54)CC3)s2)cs1,-2.2
C/C(N)=C(/C#N)C(=O)COC(=O)CNS(=O)(=O)c1c(F)cccc1F,-0.1
COc1ccc(NC(=O)NCC(C)CSc2ccc(C)cc2)c(OC)c1 (configuration not stated),-0.1

# By substructure: the compounds so far with an aryl thioether with sulfur outside any ring
SMILES,STK33 kinase inh
N#Cc1ccccc1NC(=O)CSc1cn[nH]n1,-0.5
CCN(C(C)=O)c1nc(CSc2nnc(NC(C)C)s2)cs1,-0.9
CCn1c(SCC(N)=O)nc2cc(S(=O)(=O)N3CCOCC3)ccc21,-3.4
COc1ccc(NC(=O)NCC(C)CSc2ccc(C)cc2)c(OC)c1 (configuration not stated),-0.1

# New compounds follow
SMILES,STK33 kinase inh
c1ccc(-c2ccc(C3=Nn4c(nnc4-c4cccs4)SC3)cc2)cc1,1.2
Fc1cccc(-n2cc(-c3ccccc3)c3c(=S)nc[nH]c32)c1,0.3
CNC(=O)c1ccsc1NC(=O)CCS(=O)(=O)c1ccccc1,-1.1
O=C(COC(=O)/C=C/c1nc2ccccc2s1)Nc1cccc(Cl)c1Cl,-2.0
C=CCn1c(COc2ccccc2OC)nc2ccccc21,-1.0
Cc1ccc(N(Cc2ccccc2)C(=O)c2ccc(S(=O)(=O)N3CCOCC3)cc2)cc1,0.3
C=CC(=O)NC(NC(=O)C=C)c1ccc(Br)cc1,-0.1
Cc1c(NC(=O)C(C)c2ccc(CC(C)C)cc2)c(=O)n(-c2ccccc2)n1C (configuration not stated),-1.3
O=C(O)CCN1CCOCC1,-1.2
COc1cc2c(cc1NC(=O)C(C)N1CCN(S(=O)(=O)c3ccc(C)c(C)c3)CC1)oc1ccccc12 (configuration not stated),0.5
CCSc1nc(N)c(NC(=O)c2ccc(Br)o2)c(=O)[nH]1,-0.3
CCOc1ccc(-c2nc(CN3CCCC(C(=O)N4CCOCC4)C3)c(C)o2)cc1 (configuration not stated),-0.4
CC(C)CCNC(=O)CN(Cc1ccccc1)C(=O)CCC(=O)Nc1nccs1,-1.2
CNc1sc(C(=O)c2ccccc2F)c(N)c1-c1nc2ccccc2s1,2.0
CC(=O)N(C)c1ccc(NC(=S)Nc2ccc(C(C)C)cc2)cc1,-0.9
CC(C)CCn1cnc2c1c(=O)n(C)c(=O)n2C,-0.5
Cc1cccc(OCCSc2nnc(-c3ccoc3C)n2C)c1,0.3
CNC(=O)c1nc(C)c(C2(C)CC(c3ccccc3)=NO2)s1 (configuration not stated),0.5
O=C(N1CCOCC1)N1CCN(c2ccccc2F)CC1,-1.1
Cc1ccccc1C(=O)Oc1ccc2ccc(O)cc2c1,2.7
COc1ccccc1N1CCN(C(=O)c2cc(-c3ccc(C)cc3)on2)CC1,-1.5
CC1CCN(C(=O)COc2ncnc3ccccc23)CC1,0.7
O=C(NCC1CCCO1)[C@@H]1CSC2c3ccccc3C(=O)N21 (some centres not stated),-1.4
Cc1[nH]n(-c2nc(-c3ccccc3F)cc(=O)[nH]2)c(=O)c1CCO,-1.7
CCc1ccccc1NC(=S)N(Cc1ccc(OC)cc1)CC1CCC(C(=O)O)CC1 (configuration not stated),-1.0
Cc1ccc(OCc2cc(C(=O)N3CCc4sccc4C3)no2)cc1C,-0.7
O=C(COC(=O)C1(c2ccccc2F)CCCC1)N1CCOCC1,-0.5
O=C(Nc1ccc(Cl)c(C(F)(F)F)c1)C(=O)N1CCCCC1,-1.8
CCN(CC)C(=O)c1ccc(CS(=O)(=O)c2ccc(OC)cc2)o1,-0.8
Cc1nn(CC(=O)Nc2nccs2)c(C)c1[N+](=O)[O-],-0.2
Cc1cc(Cl)ccc1C(=O)C1CCCN(C(=O)CCN2CCCO2)C1 (configuration not stated),-0.5
COc1cccc(CNC(=O)CCC2CCCN(C(=O)c3ccc(F)c(Cl)c3)C2)c1 (configuration not stated),-0.5
N#CCCn1c(SCC(=O)c2c[nH]c3ccccc23)nc2ccccc21,0.3
O=C(CCCCCN1C(=O)CCC1=O)NCc1ccccc1,0.4
Cc1cccc(NC(=S)N2CCC(NC(=O)C3CCCCC3)CC2)c1,-1.4
Cn1c(=O)c2c(nc(N3CCCC3)n2CC(O)CO)n(C)c1=O (configuration not stated),-0.2
CSc1nccc(Oc2ccccc2Cl)n1,-1.1
COc1ccc(CSCC(=O)Nc2ccccc2)cc1[N+](=O)[O-],0.9
CC(C)(C)C(=O)N1CCN(C(c2ccccc2)c2ccccc2)CC1,-1.0
COc1ccc(/C=C2/C(=O)N(c3nc4ccccc4s3)N=C2CSc2ccc(Cl)cc2)cc1,-1.5

# Gathered by group: those above with a tert-butyl group
SMILES,STK33 kinase inh
CC(C)(C)c1csc(NC(=O)C2=COCCO2)n1,0.2
CC(C)(C)C(=O)N1CCN(C(c2ccccc2)c2ccccc2)CC1,-1.0

# Following part.
SMILES,STK33 kinase inh
O=C(Oc1ccc(N2C(=O)C3C4CCC(C4)C3C2=O)cc1)c1ccco1 (configuration not stated),-2.7
CCc1ccc(CN2CCSCC2)cc1,-1.1
C1=C(c2ccco2)N2CCN=C2S1,-0.8
Cc1cc(C)c2c(n1)nn1c(N3CCN(c4ccccc4C)CC3)cc(C)nc21,-1.0
COc1cccc(-c2cc(C(F)(F)F)n3nc(C(=O)N4CCCCC4c4cccnc4)cc3n2)c1 (configuration not stated),2.6
CC1=Nc2nc(N3CCCCC3)c(C#N)c3c4c(nc(c23)N1)N(c1ccc(C(C)C)cc1)C(=O)C4,-1.3
Brc1ccc(-c2cn3ccccc3n2)cc1,0.8
CC1(C)N=C(N)N=C(N)N1c1ccccc1,0.9
COc1cccc(C(=O)C2CCCN(Cc3cn[nH]c3C3CCCCC3)C2)c1 (configuration not stated),-1.2
COc1cccc(C(C(=O)NC2CCCC2)N(C(=O)c2ccco2)c2cccc(C(C)=O)c2)c1OC (configuration not stated),0.0
NC(=NCCc1ccccc1)NS(=O)(=O)c1ccccc1F,1.7
CCS(=O)(=O)C1=NSC2=NC(=O)/C(=C\c3ccc(OC(=O)c4ccco4)c(OC)c3)C(=N)N21,4.8
O=C1CN(C(=O)c2cccs2)c2ccccc2N1,0.8
CC1=CCC2C(=O)N(c3nc4ccccc4n3C)C(=O)C2C1 (configuration not stated),-0.5
O=C(O)CCCC(=O)Nc1cccc2cccnc12,-2.4
COc1ccc(-n2ncc3c2CC(C)(C)CC3NC(=O)c2c(C)cc(=O)oc2C)cc1 (configuration not stated),0.0
CN(C)S(=O)(=O)c1ccc(N2CCCC2)c(C(=O)Nc2nc(-c3cc(F)ccc3F)cs2)c1,1.1
C(=N\N=C\c1cccs1)/c1cccs1,-0.5
Cc1cc(C)c(NC(=O)Nc2ccccc2)c(Cl)c1,-2.3
Cc1ccccc1NC(=O)c1ocnc1C,-0.4
Cc1ccc(C#CC(C)(O)C(C)(C)C)cn1 (configuration not stated),-3.7
O=c1sc(N2CCN(c3ccc(F)cc3)CC2)nc2ccsc12,-0.3
CCOC(=O)c1[nH]c(CO)c(C(=O)OCC)c1C,0.3
Cc1noc(C)c1COC(=O)[C@@H](NC(=O)c1ccccc1Cl)C(C)C,0.5
CC/C(=N/NC(=O)c1ccccc1)c1ccc(OCCN2CCOCC2)cc1,-0.6
COc1cccc(-c2c(C(=O)N/N=C(\C)c3ccncc3)nnn2-c2nonc2N)c1,3.0
O=C(CSc1c2c(nc3cc(Cl)ccc13)CCCC2)NCCCN1CCOCC1,5.3
Cc1cccc(N(CC(=O)Nc2ccccc2-c2ccccc2)S(=O)(=O)c2ccccc2)c1C,-1.9
NS(=O)(=O)c1ccc(NC(=S)NCc2ccc3c(c2)OCO3)cc1,-0.4
CC[C@@]12C(=O)N(c3cccc(Br)c3)C(=O)N1[C@H](c1ccc(F)cc1)[C@@H]1C(=O)N(C3CCCCC3)C(=O)[C@@H]12,-0.5
CCN1C(=O)c2cccc3c(S(=O)(=O)Nc4ccccn4)ccc1c23,5.9
COc1cccc(N2CCN(C(=O)CN3C(=O)NC4(CCCC4)C3=O)CC2)c1,-0.9
CC(=O)NC(Nc1c(C)n(C)n(-c2ccccc2)c1=O)C(Cl)(Cl)Cl (configuration not stated),-1.9
COC(=O)[C@H](C)NC(=O)NCCC1=CCCCC1,-0.4
CCCC(=O)Oc1cccc(C2NC(=O)c3ccccc3O2)c1 (configuration not stated),-0.3
CCCCCC(C)NC(=O)CN1C(=O)NC(C)(c2ccc3ccccc3c2)C1=O (configuration not stated),-1.5
O=C(NCCCn1ccnc1)c1cc(C2CC2)on1,-3.4
COc1ccc(NC(=O)O/N=C/c2ccc(N(C)C)cc2)cc1,0.2
CCN(Cc1ccccc1)Cc1ccc(OCc2ccccc2)c(OC)c1,-0.1
CCn1c(C)c(C(C)=O)c(SC)nc1=S,-1.0

# Random excerpt: 6 records from the list, in no set order.
SMILES,STK33 kinase inh
COc1cccc(N2CCN(C(=O)CN3C(=O)NC4(CCCC4)C3=O)CC2)c1,-0.9
Cc1noc(C)c1COC(=O)[C@@H](NC(=O)c1ccccc1Cl)C(C)C,0.5
CC(=O)NC(Nc1c(C)n(C)n(-c2ccccc2)c1=O)C(Cl)(Cl)Cl (configuration not stated),-1.9
Cc1ccc(C#CC(C)(O)C(C)(C)C)cn1 (configuration not stated),-3.7
CC[C@@]12C(=O)N(c3cccc(Br)c3)C(=O)N1[C@H](c1ccc(F)cc1)[C@@H]1C(=O)N(C3CCCCC3)C(=O)[C@@H]12,-0.5
O=c1sc(N2CCN(c3ccc(F)cc3)CC2)nc2ccsc12,-0.3

# Nothing new here: an excerpt of the list.
SMILES,STK33 kinase inh
COc1ccc(NC(=O)O/N=C/c2ccc(N(C)C)cc2)cc1,0.2
CCN(Cc1ccccc1)Cc1ccc(OCc2ccccc2)c(OC)c1,-0.1
CCn1c(C)c(C(C)=O)c(SC)nc1=S,-1.0

# Next part:
SMILES,STK33 kinase inh
CCN1CCCC1CNC(=O)c1cc(S(=O)(=O)CC)c(N)cc1OC (configuration not stated),-0.6
Cc1cc2nc3n(c2cc1C)CC1CC(C(=O)NCCc2cccs2)N(C)C31 (configuration not stated),0.5
CC1CCCC(NC(=O)COC(=O)c2ccccc2Sc2ccccc2C#N)C1C (configuration not stated),1.0
O=C(COC(=O)c1ccccc1O)Nc1ccc(OC(F)F)cc1,-1.4
CCOC(=O)c1c(NC(=O)CSc2nc3ccccc3s2)sc(C)c1C,-0.5
CCOC(=O)N1CCN(C(=O)CSc2nnc(-c3cccc(Cl)c3)o2)CC1,0.2
